# Screening data: PubChem BioAssay, National Center for Advancing Translational Sciences (NCATS)
# Marburg entry inh: inhibitors of Marburg virus binding or cell entry; Marburg virus pseudotyped entry inhibition, cell reporter; control for the full effect not named in the record; about a third of the inactives were read at about 46 µM; 300,000 compounds, 1.8% hits; AID 540276; Potency, µM (top dose mostly 37.8 µM), without a hit: at the top dose activity change, negative = inhibition, hits mostly inhibitors; active = well fitted inhibition curve with a large enough effect; inconclusive = small, poorly fitted or top-dose-only effect, or effect the other way; inactive = flat fitted curve, though single readings scatter; tested in HEK293 cells; about a fifth of its hits are not listed in these tables; note: % is set by controls: 0 for no effect and ±100 for the full control effect; luciferase read-out
# NS1 inh: inhibitors of influenza NS1 protein function. S. cerevisiae slowed by influenza A NS1, growth recovery by OD600. Potency, µM (highest dose often 46.1 µM), for the others: top-dose activity, positive = more growth. 270,000 compounds, 0.4% hits. AID 2326; note: actives are rising curves; nearly all actives have a fitted effect of over 50% in size
#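 OD600 was taken as the measure of yeast growth restored by compound in an NS1-expressing S. cerevisiae strain. Cells had been washed out of glucose medium and diluted 1:100 into galactose -URA medium, pH 6.0.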
# Lassa entry inh: blocks Lassa virus binding to or entry into cells | Lassa virus pseudotype entry inhibition, cell reporter; control for the full effect not named in the record | Potency, µM (top dose mostly 37.9 µM), inactives show at the highest dose activity change, negative = inhibition, hits mostly inhibitors | 300,000 compounds, 1.2% hits | AID 540256; active means well fitted inhibition curve with a large enough effect; inconclusive means small, poorly fitted or top-dose-only effect, or effect the other way; inactive means flat fitted curve, though single readings scatter; tested in HEK293 cells; note: % is set by controls: 0 for no effect and ±100 for the full control effect; nearly all actives have a fitted effect of over 50% in size; luciferase read-out
# Cruzain Triton: cruzain (T. cruzi) inhibition with detergent; purified cruzain, Z-FR-AMC fluorescence, 0.01% Triton; Potency, µM, for the others: max response, negative = inhibition, most hits filed as inhibitors; 200,000 compounds, 0.43% hits; AID 1478; active = well fitted curve in the direction sought with a large enough effect; inconclusive = small, poorly fitted or top-dose-only effect, or another doubt; inactive = no such curve, though single readings can be large; an effect the other way counts as inactive or inconclusive;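 note: plate controls were neutral wells for no effect and buffer without enzyme for full effect; nearly all actives have a fitted effect of over 40% in size; top concentration of the series not given in the record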
# Target sequence (P25779 123-467 limits assumed): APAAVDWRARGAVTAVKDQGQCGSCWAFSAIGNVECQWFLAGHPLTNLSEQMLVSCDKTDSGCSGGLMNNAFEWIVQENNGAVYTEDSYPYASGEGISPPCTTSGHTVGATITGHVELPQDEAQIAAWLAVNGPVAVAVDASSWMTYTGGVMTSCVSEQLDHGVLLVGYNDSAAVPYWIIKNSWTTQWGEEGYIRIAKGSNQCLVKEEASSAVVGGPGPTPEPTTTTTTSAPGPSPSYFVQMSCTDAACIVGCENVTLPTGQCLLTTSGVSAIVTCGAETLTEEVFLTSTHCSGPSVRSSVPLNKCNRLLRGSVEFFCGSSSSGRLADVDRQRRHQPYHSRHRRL
#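 Enzyme 1.5 nM, Z-FR-AMC 2 uM, NaOAc 100 mM pH 5.5, DTT 5 mM, Triton X-100 0.01%; 15 min RT compound preincubation; kinetic ex360/em450, 60 s delta.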
# SARS PLpro yeast: SARS-CoV PLP inhibition in yeast. 330,000 compounds, 0.19% hits. AID 485353. Potency, µM (series often up to 32.9 µM), for inactives: at the top dose activity, positive = growth rescue. S. cerevisiae expressing SARS-CoV PLpro, growth rescue; control for the full effect not named in the record; note: 0% is about no effect; nearly all actives have a fitted effect of over 55% in size; growth read by luminescence after 48 h
# Cruzain inh noDet: inhibitors of Trypanosoma cruzi cruzain without detergent | P25779 | purified cruzain, Z-FR-AMC fluorescence, no detergent | Potency, µM, without a hit: max response, negative = inhibition, usual class: inhibitors | 200,000 compounds, 2.3% hits | AID 1476; active = well fitted curve in the direction sought with a large enough effect; inconclusive = small, poorly fitted or top-dose-only effect, or another doubt; inactive = no such curve, though single readings can be large; an effect the other way counts as inactive or inconclusive;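 note: plate controls were enzyme without inhibitor for no effect and buffer without enzyme for full effect; nearly all actives have a fitted effect of over 40% in size; top concentration of the series not given in the record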
#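 Purified cruzain at 1.5 nM, pre-incubated 15 min with compound at room temperature in 100 mM sodium acetate pH 5.5, 5 mM DTT, 0.00005% Triton X-100. Reaction started with 2 uM Z-FR-AMC; AMC fluorescence increase over 60 s gives rate.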
# 2A StopGo: FMDV 2A StopGo reporter, luciferase signal | human cells with a luciferase reporter of 2A StopGo recoding; control for the full effect not named in the record | AID 1159524 | Potency, µM (series often up to 57.9 µM), without a hit: at the highest dose signal change, negative = less light | 410,000 compounds, 1.2% hits; active = well fitted falling curve with a large enough effect; inconclusive = small, poorly fitted or top-dose-only effect; inactive = no such curve, though single readings can be large or run the other way; tested in HEK293T cells; note: % is set by controls: 0 for no effect and ±100 for the full control effect; nearly all actives have a fitted effect of over 45% in size; luciferase light after 4 h
# RE007 growth inh: less growth of the S. pombe RE007 Vpr strain | 360,000 compounds, 0.21% hits | S. pombe RE007 Vpr strain, BacTiter-Glo ATP luminescence, 24 h; control for the full effect not named in the record | Potency, µM (top dose mostly 92.2 µM), for inactives: at the top dose activity change, negative = less growth | AID 651644; active = well fitted falling curve with a large enough effect; inconclusive = small, poorly fitted or top-dose-only effect; inactive = no such curve, though single readings can be large or run the other way;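 note: % is set by controls: 0 for no effect and ±100 for the full control effect; nearly all actives have a fitted effect of over 50% in size; the assay follows cell death caused by Vpr and the record does not say whether a fall means rescue or toxicity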
#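 Fission yeast strain RE007, carrying one chromosomally integrated HIV-1 vpr copy, was seeded at OD 0.01 in PMG+AL medium with 23 nL pinned compound. After 24 h at 30 °C and 99% humidity, viability was read by BacTiter-Glo luminescence.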
# An asterisk follows results filed as active; ? = inconclusive; . = no result given; & = joins results of further samples; [ ] = remark or other dose. Unless noted, calls come from the whole dose curve; as a rule, active means well fitted rising curve with a large enough effect; inconclusive means small, poorly fitted or top-dose-only effect; inactive means no such curve, though single readings can be large or run the other way. Potency is the fitted concentration of half-maximal effect. Compounds were not picked by outcome; 4.8% or so of the library scored in one or more.
SMILES,Marburg entry inh,NS1 inh,Lassa entry inh,Cruzain Triton,SARS PLpro yeast,Cruzain inh noDet,2A StopGo,RE007 growth inh
CCOC(=O)C1CCN(C(=O)CC2(CC(=O)O)CCCC2)CC1,7%[46.1 µM],1%,16%,.,-2%,.,6%,-6%
O=C(NC1CCN(S(=O)(=O)c2cccc([N+](=O)[O-])c2)CC1)C1CCCCC1,-2%[46.1 µM],3%,4%,.,4%,.,0%,0%
CC(=O)C(Sc1ccc2nnc(-c3ccncc3)n2n1)C(C)=O,.,9%,.,-3.6%,?,16%,-20%,-18%
Cc1ccc(OCC(=O)N2CCN(c3ccc([N+](=O)[O-])c(N4CCOCC4)c3)CC2)cc1,-30%,-12%,26%,-6.7%,-3%,?,?,-17%
CCCCNC(=S)Nc1cccc(S(=O)(=O)NC2=NCCC2)c1,?,.,?,.,8%,.,50%[activator],-2%
COc1ccccc1NC(=O)c1ccc(C(=O)c2ccccc2)o1,-25%[46.1 µM],.,?,.,-1%,.,-11%,-1%
C=CCN(c1ccccc1)S(=O)(=O)c1cccc(C(=O)Nc2nnc(SCC)s2)c1,-7%,-8%,-14%,-7.1%,-11%,-16%,-20%,24%
CC(=O)Nc1ccc(NC(=O)c2c(C)nn(-c3ccccc3)c2Cl)cc1C,0%[46.1 µM],0%,2%[46.1 µM],.,1%,.,-7%,-5%
O=C(NN=Cc1ccccc1O)C(O)c1ccccc1 (stereo not drawn),?,.,-22%[46.1 µM],.,.,.,69%[activator],-5%
Cc1nn(C)c(C)c1S(=O)(=O)NCCc1ccc(Cl)cc1,-2%[46.1 µM],-11%,?,.,0%,.,24%,-12%
CCOC(=O)c1c(NC(=S)NC(=O)c2cnn(CC)c2)sc2c1CCC(C)C2 (stereo not drawn),23%,8%,?,2.0%,2%,26%,-19%,4%
Cc1ccc(-c2csc(/C(C#N)=C/Nc3ccc4c(c3)OCCO4)n2)cc1,-26%,6%,-7%,1.2%,-1%,?,-14%,9%
Oc1ccccc1-c1cncn1Cc1ccccc1,10%,-1%,-5%,.,1%,.,-30%,-8%
COc1ccc(NC(=O)c2cc(C3CC3)nc3c2c(C)nn3-c2ccccc2)c(OC)c1,.,.,?,-0.7%,.,-13%,2%,.
C=CCn1c(=N)c(C#N)cc2c(=O)n3ccccc3nc21,-2%,-2%,-1%,28µM*,6%,?,-19%,0%
CCCCCCn1c(SCCN2CCOCC2)nc2c1c(=O)[nH]c(=O)n2C,-7%&-7%[46.1 µM],-3%,?,2.8%,-2%,1%,-21%,-11%
CCOCCn1ccc2c(OCC(=O)Nc3ccc(C(N)=O)cc3)cccc2c1=O,.,.,-7%[46.1 µM],-3.4%,.,-3%,-12%,.
Cc1ccc(N2C(=O)CC(NCC3CCCO3)C2=O)cc1 (stereo not drawn),.,-3%,.,.,-7%,.,-4%,-27%
CC(C)(C)C(=O)Nc1cc2c3c(c1)CCC(=O)N3CCC2,.,16%,.,.,-2%,.,-1%,0%
COc1ccc(C(=O)c2sc(Nc3ccc(NC(C)=O)cc3)nc2C)cc1,.,15%,.,.,-1%,.,-20%,8%
COCCCNC(=O)c1ccc2c(c1)nc(C)n2-c1cccc(C)c1,?,-2%,?,0.5%,0%,?,-2%&-5%,7%
C=CCN=C1CC(C)(C)CC(=O)/C1=C(/O)CCC(=O)OC,-7%,10%,2%,4.0%,5%,-6%,17%,-12%
Cc1c(C(=O)Nc2cccc(N(C)S(C)(=O)=O)c2)cccc1[N+](=O)[O-],.,0%,.,.,-1%,.,0%,9%
CC(=O)c1cccc(NC(=O)c2ccc3ccccc3c2)c1,.,-28%,.,.,-7%,.,17%,1%
COc1ccccc1N(C(=O)c1snc(C(N)=O)c1N)C(C(=O)NC1CCCC1)c1ccc(N(C)C)cc1 (stereo not drawn),?,10%,.,.,7%,.,24%,8%
# (list continues)
SMILES,Marburg entry inh,NS1 inh,Lassa entry inh,Cruzain Triton,SARS PLpro yeast,Cruzain inh noDet,2A StopGo,RE007 growth inh
COc1ccc(NC(=O)Cc2cccs2)c(OC)c1,29%,-9%,19%,0.4%,-1%,4%,17%,-3%
CCN(c1ccccc1)S(=O)(=O)c1ccc(Cl)c(C(=O)N(CC2CCCO2)C2CCS(=O)(=O)C2)c1 (stereo not drawn),?,.,-19%,.,1%,.,-7%,3%
O=C(Nc1nc(-c2ccc(S(=O)(=O)N3CCCCCC3)cc2)cs1)c1ccccc1,-25%,13%,?,-3.3%,4%,10µM*,11µM*,-2%
CNC(=O)c1sccc1S(=O)(=O)Cc1c(Cl)cccc1Cl,15%,6%,9%,6.7%,-4%,-7%,-17%,-11%
CCS(=O)CCSc1nc2ccccc2s1 (stereo not drawn),8%,0%,-10%,-2.9%,-1%,5%,-7%,-8%
COC(=O)[C@@H](NC(=O)Nc1ccc2c(c1)OCCO2)C(C)C,3%,-9%,1%,1.2%,-4%,1%,1%,-4%
O=C(CCn1c(=O)oc2ccccc21)NCc1cccs1,-9%,-5%,0%,0.6%,-7%,8%,.,-1%
FC(F)(F)c1cc(NCc2cccs2)n2ncnc2n1,4%,18%,-25%,8.5%,16%,6%,.,-1%
CC(C)Oc1ccc(CCN)cc1Cl,?,9%,-15%,0.1%,18%,-1%,-13%,-18%
CC(=O)Nc1ccc(C(=O)OCC(=O)c2ccc(S(=O)(=O)N3CCCCC3)cc2)cc1,7%,.,8%,.,-8%,.,-11%,-5%
CCc1ccccc1NC(=O)Cn1nc(C)c2nn(-c3ccc(Cl)cc3)c(C)c2c1=O,.,.,-2%[46.1 µM],3.9%,.,3%,?,.
O=c1[nH]c(N2CCN(Cc3ccccc3)CC2)nc2c1CCC2,-5%[46.1 µM],-2%,-11%,.,-1%,.,-15%,-11%
O=C(C1CCN(S(=O)(=O)c2ccccc2)CC1)N1CCN(Cc2ccc3c(c2)OCO3)CC1,-30%,-9%,-10%,.,?,.,-14%,-1%
O=C(CNCc1ccccc1)Nc1ccc(Oc2ccccc2)cc1,?,-8%,-29%,.,1%,.,1%,11%
CC(=O)NNc1[nH]c2c(c(=O)c1[N+](=O)[O-])c(=O)n(C)c(=O)n2C,-12%,5%,-1%,.,0%,.,-29%,3%
CCCc1cc(C(=O)NCc2ccco2)no1,.,-16%,.,-3.1%,-8%,-12%,50%[activator],-4%
Cc1nn(-c2ccccc2)nc1C(=O)Nc1ccc2[nH]ncc2c1,.,7%,.,.,-3%,.,-27%,2%
COCCC(=O)N1CCCC(N2CCN(c3ccc(F)cc3)CC2)C1 (stereo not drawn),4%[46.1 µM],-12%,22%[46.1 µM],.,-8%,.,4%,-29%
O=C(Nc1ccc2c(c1)C(=O)OC2)Nc1cccc2ccccc12,12%[46.1 µM],.,5%,.,-1%,.,-8%,9%
O=C(C1CCN(S(=O)(=O)c2ccc3ccccc3c2)CC1)N1CCN(c2ncccn2)CC1,?,-52%,?,-0.3%,18%,?,28µM*,16%
CCCCNC(=O)c1cc2c(=O)n3cccc(C)c3nc2n1C,.,-8%,.,-2.1%,2%,?,.,.
CC1(C)C(=O)C2(CCCCC2)C(=O)OC1c1cccn1-c1ccc([N+](=O)[O-])cc1 (stereo not drawn),15%,3%,4%,0.0%,?,12%,-18%,-2%
Cc1c(C)n(Cc2ccccc2)c2ccc(C(=O)O)cc12,25%[14.2 µM],.,0%,.,.,.,-19%,4%
CCCN(CC(=O)Nc1cc(Cl)ccc1Cl)C(=O)c1ccc(N2CCCC2=O)cc1,?,.,?,.,0%,.,?,2%
Cc1csc2nc(CNS(=O)(=O)c3ccc(-c4ccccc4)cc3)cn12,.,-16%,.,-4.9%,6%,0%,-28%,-11%

# Rewritten with bars between the fields: entries from further up.
Structure | Marburg entry inh | NS1 inh | Lassa entry inh | Cruzain Triton | SARS PLpro yeast | Cruzain inh noDet | 2A StopGo | RE007 growth inh
O=C(Nc1ccc2c(c1)C(=O)OC2)Nc1cccc2ccccc12 | 12%[46.1 µM] | . | 5% | . | -1% | . | -8% | 9%
O=C(Nc1nc(-c2ccc(S(=O)(=O)N3CCCCCC3)cc2)cs1)c1ccccc1 | -25% | 13% | ? | -3.3% | 4% | 10µM* | 11µM* | -2%
CCCCNC(=O)c1cc2c(=O)n3cccc(C)c3nc2n1C | . | -8% | . | -2.1% | 2% | ? | . | .

# Entries above that have a furan ring, fused or not:
SMILES,Marburg entry inh,NS1 inh,Lassa entry inh,Cruzain Triton,SARS PLpro yeast,Cruzain inh noDet,2A StopGo,RE007 growth inh
COc1ccccc1NC(=O)c1ccc(C(=O)c2ccccc2)o1,-25%[46.1 µM],.,?,.,-1%,.,-11%,-1%
CCCc1cc(C(=O)NCc2ccco2)no1,.,-16%,.,-3.1%,-8%,-12%,50%[activator],-4%

# Continuation.
SMILES,Marburg entry inh,NS1 inh,Lassa entry inh,Cruzain Triton,SARS PLpro yeast,Cruzain inh noDet,2A StopGo,RE007 growth inh
COc1cccc(C(=O)NCc2ccc3c(c2)OCO3)c1,16%,-3%,?,.,-3%,.,22%,7%
O=C(Nc1ccccc1)P(=O)(O)c1ccccc1,11%[46.1 µM],.,-5%[46.1 µM],.,.,.,25%,-2%
O=C(O)/C=C/c1ccc(-c2cccc(C(F)(F)F)c2)o1,2%,.,14%,.,-5%,.,-8%,-9%
O=C(/C=C/Nc1ccccc1)c1ccc(Oc2ncccn2)cc1,?,-1%,?,4.9%,-4%,-6%,12%,-6%
CC(C)CN(/C=N/c1sc2c(c1C#N)CCCCC2)CC(C)C,.,-1%,.,-1.8%,-8%,-2%,-2%,.
Cc1cc(C(=O)CN2C(=O)NC3(CCCCCC3)C2=O)c(C)n1C,1%,.,18%,.,-2%,.,68%[activator],-8%
CSc1nn(CCc2ccncc2)c(=S)s1,-9%,-99%,-4%,8.1%,-36%,3%,-21%,?
Cc1ccccc1CN1C(=O)c2ccccc2Sc2ccc(C(=O)NCCN3CCOCC3)cc21,?,-3%,-12%[46.1 µM],.,-2%,.,-5%,-8%
